Bioassay records deposited in PubChem BioAssay by several laboratories.
YopH inh = blocks Yersinia enterocolitica YopH tyrosine phosphatase | fluorescence Ex485/Em525 | AID 898 | inhibition, %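 (about 10 µM by stock and volumes)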 | 140,000 tested, 0.16% active;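 active = inhibition of 50% or more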;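 also: controls were vehicle for no effect and minimum signal wells for full effect; inactives centre near -20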
Arbovirus anti = blocks arbovirus infection; arbovirus infection cell-based antiviral screen; inhibition, % at 10 µM; 200,000 tested, 0.37% active; AID 1251;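 active = inhibition from about 30%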;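 also: bluetongue infection of BSR cells; cell survival read as ATP light after 72 h; 0% = infected wells without compound and 100% = uninfected wells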
Mtb betalactam = beta-lactam sensitization of Mtb H37Rv | M. tuberculosis H37Rv growth with meropenem, percent inhibition; hits of this screen are not shown here | inhibition, % at 25 µM | 330,000 tested, 0.27% active | AID 434955;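 active = about 74% or more and at least 40 points above the plate without the antibiotic, then above 30% in a dose series; inconclusive = first-round hits that could not be retested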;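 also: growth measured after seven days incubation then overnight dye step; 0% = bacteria only wells and 100% = bacteria with antibiotic; twin plates without the antibiotic show which effects depend on it; some results filed as inactive read as strong as hits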
RecA splice inh = blocks M. tuberculosis RecA intein splicing; cell-free RecA intein splicing, fluorescence; inhibition, %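 (about 9 µM by stock and volumes)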; 290,000 tested, 0.75% active; AID 2221; in the data active = inhibition above about 30%; inconclusive = no clear call, values can overlap the other calls;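 also: 0% = vehicle wells and 100% = reference inhibitor control wells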
Target sequence (P9WHJ3 whole entry, looked up, canonical isoform): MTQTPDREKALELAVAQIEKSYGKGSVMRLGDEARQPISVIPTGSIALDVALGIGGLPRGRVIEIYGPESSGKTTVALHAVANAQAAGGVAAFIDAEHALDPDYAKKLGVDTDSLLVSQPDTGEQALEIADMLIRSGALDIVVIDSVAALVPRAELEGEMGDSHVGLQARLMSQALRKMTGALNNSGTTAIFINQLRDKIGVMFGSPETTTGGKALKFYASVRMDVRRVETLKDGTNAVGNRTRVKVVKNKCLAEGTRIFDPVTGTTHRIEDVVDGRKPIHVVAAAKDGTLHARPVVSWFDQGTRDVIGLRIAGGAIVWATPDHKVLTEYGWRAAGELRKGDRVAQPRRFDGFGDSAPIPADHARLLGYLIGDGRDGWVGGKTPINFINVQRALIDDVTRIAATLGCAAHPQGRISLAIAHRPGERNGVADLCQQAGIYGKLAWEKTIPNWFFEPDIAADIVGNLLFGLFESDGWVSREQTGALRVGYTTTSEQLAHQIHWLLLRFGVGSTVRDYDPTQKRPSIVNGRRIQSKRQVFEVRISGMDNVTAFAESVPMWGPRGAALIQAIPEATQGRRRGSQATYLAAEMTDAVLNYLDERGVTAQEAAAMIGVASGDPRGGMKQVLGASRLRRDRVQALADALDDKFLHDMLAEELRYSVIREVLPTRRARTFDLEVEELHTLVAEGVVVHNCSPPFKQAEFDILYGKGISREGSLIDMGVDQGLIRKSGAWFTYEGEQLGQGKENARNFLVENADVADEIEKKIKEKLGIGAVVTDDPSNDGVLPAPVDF
Mtb growth = M. tuberculosis H37Rv growth inhibitors, H37Rv strain (AID 1626); M. tuberculosis H37Rv growth inhibition; higher % means a stronger effect; inhibition, % at 10 µM; hits with a dose series show IC50 in µM; 220,000 tested, 0.95% active;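 active = confirmed in a dose series; inconclusive = inhibition above 80% but not taken into the dose series; inactive = below 80% or under 30% at every dose of the series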;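 also: bacteria incubated seven days before Alamar blue readout; 0% = bacteria only wells and 100% = bacteria with antibiotic wells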
* = called active by the depositor; u = inconclusive; x = not tested or not shown. Only part of the results is shown; the hit share may differ from the screen's.

The line under a structure holds: YopH inh | Arbovirus anti | Mtb betalactam | RecA splice inh | Mtb growth
[1] Cc1cccc(Cn2ccc(NC(=O)c3ccc4c(c3)OCO4)n2)c1
    x | -27 | 99 | 2.3 | u
[2] COc1ccc([N+](=O)[O-])cc1NC(=O)CSCc1cc(C)cc(C)c1
    -7 | -7 | 9 | 2.2 | 9%
[3] COc1ccc(CN2CCN(C(=O)Cn3c(=O)oc4cc(Cl)ccc43)CC2)c(OC)c1OC
    x | x | -8 | -0.7 | x
[4] CC(C)C(=O)Nc1nnc(CCN(CCc2nnc(NC(=O)C(C)C)s2)[N+](=O)[O-])s1
    x | x | 10 | -1.9 | -13%
[5] Cc1ccc2nc(-c3cccnc3SCC(=O)N3c4ccccc4CC3C)[nH]c2c1 (stereo not drawn)
    0 | 1 | 16 | 1.2 | 7%
[6] Cc1ccc(CNC(=O)COc2ccc(S(=O)(=O)N3CCOCC3)cc2)cc1
    x | x | 3 | -2.5 | x
[7] Cc1ccc(Nc2nc(N)nc(CN3CCN(Cc4ccccc4)CC3)n2)cc1Cl
    x | x | 77 | -0.3 | 67%
[8] CCOC(=O)N1CCN(S(=O)(=O)c2ccc(C(=O)N(CCN(C)C)c3nc4ccc(CC)cc4s3)cc2)CC1
    x | x | 3 | -0.1 | x
[9] Cc1cc(C)c2c(n1)nn1c(-n3ccnc3)cc(C)nc21
    -51 | 4 | x | x | -4%
[10] O=C1NCCCC1C(=O)N1CCCCC1 (stereo not drawn)
    x | 0 | -5 | 0.2 | 0%
[11] O=[N+]([O-])c1cccc(-c2ccc(C(=S)N3CCOCC3)o2)c1
    x | -4 | 6 | -4.6 | -9%
[12] O=C(O)c1cc(S(=O)(=O)Nc2ccc3oc(=O)sc3c2)ccc1O
    -12 | -3 | -2 | -13 | -9%
[13] COc1ccc(-c2nn(-c3ccccc3)cc2/C=C2/SC(=S)N(Cc3ccco3)C2=O)c(C)c1
    -25 | -8 | -12 | 3.6 | 0%
[14] O=C(COC(=O)Cc1c[nH]c2ccccc12)Nc1c(Cl)cccc1C(F)(F)F
    x | x | -4 | 1.1 | x
[15] CCOC(=O)c1c(NC(=O)C[n+]2ccc(N(C)C)cc2)sc(C)c1C
    x | 6 | -7 | -2.0 | 1%
[16] CCOCCCNC(=O)C(c1ccc(C)cc1)N(Cc1cccs1)C(=O)c1ccccn1 (stereo not drawn)
    x | 6 | -5 | x | 5%
[17] CC(NS(=O)(=O)c1ccc(Br)s1)c1ccccc1 (stereo not drawn)
    x | x | 9 | 4.6 | x
[18] COc1cc(NC(=O)COC(=O)CCOc2ccc(C)cc2)cc(OC)c1
    x | x | u | 3.1 | x
[19] CC(=O)OC1N=C(c2ccc(Cl)cc2)c2cc(Br)ccc2NC1=O (stereo not drawn)
    14 | 1 | 15 | 10 | 10%
[20] Brc1cccc(OCCOCCn2ccnc2)c1
    -7 | -5 | 1 | -0.5 | 4%
[21] CCOC(=O)N1CCC(N(C(=O)Nc2ccccc2)C(C)CC)CC1 (stereo not drawn)
    -21 | 8 | 1 | x | 1%
[22] CC1(C)C2CCC1(CS(=O)(=O)NCc1ccc(Cl)cc1Cl)C(=O)C2 (stereo not drawn)
    x | x | -1 | 0.3 | x
[23] Cc1cc(C=O)c(C)n1-c1ccc(N2CCCC2)c([N+](=O)[O-])c1
    -36 | -4 | 1 | -1.8 | 6%
[24] O=C(NC(=S)NC(CO)c1ccccc1)c1ccc(F)cc1 (stereo not drawn)
    x | x | -8 | 2.5 | x
[25] CC(=O)N1CCN(C(=O)c2cc(S(=O)(=O)NCc3ccccc3)ccc2C)CC1
    x | x | 0 | 0.8 | x
[26] COc1cnn(Cc2ccccc2)c(=O)c1SCc1ccccc1
    -26 | -13 | 0 | 4.4 | 7%
[27] CCN1CCCC1CNC(=O)c1ccc(N2CCOCC2)c(NS(=O)(=O)c2ccc(OC)cc2)c1 (stereo not drawn)
    x | -1 | -2 | 1.2 | -5%
[28] Cc1onc(-c2c(F)cccc2Cl)c1C(=O)NC(=S)NC1CCSC1=O (stereo not drawn)
    -16 | 2 | -4 | 4.1 | -5%
[29] CCOC(=O)c1nnn(-c2nonc2OC)c1-c1ccccc1
    -38 | 2 | 3 | -0.5 | -1%
[30] CC1CCCCN1C(=O)CSc1nc(N)cc(=O)[nH]1 (stereo not drawn)
    -14 | 3 | -8 | -1.4 | 2%
[31] COc1ccc(C(=O)n2nc(-c3ccco3)nc2N)cc1
    -22 | 2 | -9 | 9.6 | -3%
[32] CNC(=O)c1c(NC(=O)c2ccc(S(=O)(=O)N3CCCCC3C)cc2)sc2c1CCN(C)C2 (stereo not drawn)
    x | x | -5 | -3.5 | x
[33] CC(C)Oc1ccc(CNCCC2(C(C)C)CCOC(C)(C)C2)cc1 (stereo not drawn)
    -17 | 5 | -7 | 6.6 | -3%
[34] CCN(CC)CCn1c2c(c(SCC(=O)Nc3nc4ccccc4s3)nc1=O)CCC2
    x | x | -3 | 3.9 | x
[35] COc1ccc(NC(=O)C(=O)c2cn(CC(=O)N3CCCC3)c3ccccc23)c(OC)c1
    x | x | 6 | -1.1 | x
[36] Cn1/c(=N\NC(=O)C2CCCCC2)sc2ccccc21
    x | 17 | 2 | 0.0 | 4%
[37] CCCc1[nH][nH]c(=O)c1C(c1cccc(Cl)c1)C(C#N)C#N (stereo not drawn)
    5 | -4 | -7 | 52* | -4%
[38] CN(C)C(CNC(=O)c1cccc(NS(=O)(=O)c2ccc(Br)cc2)c1)c1ccco1 (stereo not drawn)
    x | x | -9 | 0.9 | x
[39] COc1ccc(OCCN2C(=O)c3ccccc3C2=O)cc1
    x | -3 | 5 | -1.2 | 6%
[40] O=S(=O)(Nc1cnc2ccccc2c1)N1CCCCCC1
    -6 | -13 | -1 | 0.6 | 8%

An excerpt of these results, screen by screen.
[28] Cc1onc(-c2c(F)cccc2Cl)c1C(=O)NC(=S)NC1CCSC1=O (stereo not drawn)
[29] CCOC(=O)c1nnn(-c2nonc2OC)c1-c1ccccc1

Compound	28	29
YopH inh	-16	-38
Arbovirus anti	2	2
Mtb betalactam	-4	3
RecA splice inh	4.1	-0.5
Mtb growth	-5%	-1%

Remaining list, next part.
The line under a structure holds: YopH inh | Arbovirus anti | Mtb betalactam | RecA splice inh | Mtb growth
[41] COc1ccc(OCc2cc(C(=O)NC(C)c3cnn(C)c3)no2)c(Cl)c1 (stereo not drawn)
    x | x | 6 | 2.3 | x
[42] CS(=O)(=O)N(CC(=O)Nc1ccc(S(=O)(=O)N2CCOCC2)cc1)c1ccccc1Br
    x | -3 | -4 | -0.5 | -8%
[43] O=C(NNS(=O)(=O)c1ccc2ccccc2c1)c1cccs1
    -16 | -11 | 11 | 0.3 | 4%
[44] COc1ccc(C(=O)N/C(=C\c2ccccc2)C(=O)Nc2ccccc2C(=O)O)cc1
    x | x | -6 | 0.1 | x
[45] COCCCN(Cc1ccco1)C(=O)c1cc2c(s1)-c1ccc(Cl)cc1S(=O)(=O)C2
    x | x | 1 | -1.8 | x
[46] CCn1cc(C(=O)NCc2ccco2)c2cc(OC)c(OC)cc2c1=O
    -12 | 7 | 1 | 12 | -8%
[47] COc1ccccc1-c1nc(N)n[nH]1
    x | -3 | -2 | -0.2 | -9%
[48] CCCc1nc2oc3ccccc3c(=O)c2c(=O)n1-c1ccc(C)cc1
    x | x | -4 | 1.9 | 8%
[49] COc1cc(CNc2ncn[nH]2)cc(Br)c1OC
    -50 | 7 | -1 | -0.4 | 2%
[50] O=C(c1ccc(N2CCCC2=O)cc1)N1CCN(c2ccccc2F)CC1
    x | x | -1 | 1.5 | x
[51] Cc1cccc(/C=C2\CCC(C3CCCC3)C2=O)c1 (stereo not drawn)
    -18 | 0 | 2 | 4.4 | 11%
[52] O=C(O)c1cc(N2C(=O)C3C4C=CC(C4)C3C2=O)ccc1NCc1cccnc1 (stereo not drawn)
    -26 | -1 | 2 | -0.2 | 6%
[53] CCOC(=O)C1CCN(C(=O)N2CCOCC2)CC1
    -15 | -3 | -8 | 0.6 | -9%
[54] COc1ccc2oc(=Nc3cc(F)ccc3F)c(C(N)=O)cc2c1
    x | -14 | 6 | 0.8 | 2%
[55] Cc1nn(-c2ccccc2)c(C)c1C(=O)Nc1ccc(N2CCOCC2)cc1
    x | 9 | -1 | 3.7 | -4%
[56] COc1cccc(/C=N/NC(=O)CSc2cccc3cccnc23)c1
    x | x | -4 | 3.5 | 1%
[57] CC(C)CCn1c(=O)c2ccccc2n2c(CCC(=O)NC3CCN(Cc4ccccc4)CC3)nnc12
    x | x | -7 | -1.3 | x
[58] Cn1nc(C(F)(F)F)c(C#N)c1N1CCN(c2ccccn2)CC1
    x | -1 | -14 | 0.3 | 5%
[59] COc1ccc(CC2(CO)CCN(Cc3cccnc3)CC2)cc1
    x | 0 | 0 | -0.3 | 1%
[60] CNC(=S)N1CCN(c2c(F)cc3c(=O)c(C(=O)O)cn(C4CC4)c3c2OC)CC1C (stereo not drawn)
    -13 | -6 | 100 | -8.6 | u

Laid out differently: results already given
nr	SMILES	YopH inh	Arbovirus anti	Mtb betalactam	RecA splice inh	Mtb growth
45	COCCCN(Cc1ccco1)C(=O)c1cc2c(s1)-c1ccc(Cl)cc1S(=O)(=O)C2	x	x	1	-1.8	x
46	CCn1cc(C(=O)NCc2ccco2)c2cc(OC)c(OC)cc2c1=O	-12	7	1	12	-8%

Other structures follow.
The line under a structure holds: YopH inh | Arbovirus anti | Mtb betalactam | RecA splice inh | Mtb growth
[61] CC(NC(=O)COC(=O)/C(=C/c1cccs1)c1cccs1)c1ccccc1 (stereo not drawn)
    -16 | 3 | 12 | 5.9 | 9%
[62] O=C(NNC(=O)c1cccs1)c1ccc(F)cc1
    x | x | 0 | -1.4 | x
[63] CCCCCCNc1c(C(=O)OCC)c(=O)[nH]c2ccccc12
    -42 | 8 | 4 | 1.5 | 5%
[64] COc1ccccc1OCc1nc(C#N)c(NCCCn2ccnc2)o1
    x | 3 | 17 | -0.9 | -7%
[65] Cc1cc(Cl)ccc1OCC(=O)Nc1cccnc1
    x | x | -9 | -3.7 | x
[66] CCC(CC)c1nnc(NC(=O)CCc2ccccc2)s1
    x | x | 0 | 0.0 | x
[67] CCCCNC(=O)CSc1nc(N)c(C(=O)Nc2ccc(OC)cc2)s1
    x | x | 70 | -2.3 | 24%
[68] CC(=O)N1CCN(C(=O)c2cc(S(=O)(=O)N3CCCCC3)ccc2Cl)CC1
    x | x | 2 | 3.8 | x
[69] O=C(Cc1c[nH]c2ccccc12)N[C@@H](Cc1c[nH]c2ccccc12)C(=O)O
    x | x | -3 | -0.9 | x
[70] CCOc1ccc(Nc2nc(Nc3ccc(O)cc3)nc(C)c2[N+](=O)[O-])cc1
    x | -3 | 3 | -1.9 | -4%
[71] CCOC(=O)c1[nH]c2cc(OC)c(OC)cc2c1NC(=O)CN1CCN(C)CC1
    -26 | 10 | x | x | -5%
[72] CCCCCC(=O)Nc1cccc(C2=NOC3(C2)C[C@@H](C(N)=O)N(C(=O)Cc2ccc([N+](=O)[O-])cc2)C3)c1 (stereo partly drawn)
    x | x | -1 | 1.1 | -2%
[73] COc1ccc(C(=O)NCc2nnc(SCC(=O)Nc3cccc(F)c3)o2)cc1
    x | 3 | 0 | x | 6%
[74] CN(C)CCCCCN(C)Cc1cc2ccccc2o1
    x | 2 | 2 | -0.2 | 1%
[75] CCc1cccc(CC)c1NC(=O)C1CSC2(C)CCC(=O)N12 (stereo not drawn)
    x | x | 3 | 0.1 | x
[76] Cc1ccc(SCC(=O)NCc2ccco2)cc1
    -9 | -4 | 1 | -1.3 | 8%
[77] CCOC(=O)c1ccc2cccc(C)n2c1=O
    -5 | -6 | -4 | -5.5 | 10%
[78] COC(=O)c1ccccc1NC(=O)CSc1nnnn1C
    -31 | 2 | -10 | -6.2 | -5%
[79] Cc1ccccc1C(=O)OC(C)CN1CCN(C)CC1 (stereo not drawn)
    x | -3 | -6 | 0.6 | -1%
[80] Cc1cc(C(=O)CS(=O)(=O)c2ccc(Cl)cc2)cc(C)c1O
    x | x | -2 | 8.2 | x
[81] O=C(NCc1nnc(SCC(=O)N2CCN(c3ccccc3)CC2)o1)c1ccco1
    -26 | -5 | -3 | -0.2 | -4%
[82] COc1cc(CNCCSc2nnnn2C)cc(Br)c1OCc1ccc(F)cc1
    4 | -7 | 51 | -0.2 | 6%
[83] N#C/C(=C\c1ccc(O)c(O)c1)S(=O)(=O)c1ccccc1
    -47 | -10 | 3 | 6.2 | -8%
[84] Clc1ccc2oc3c(Cl)ncnc3c2c1
    -20 | 4 | 45 | 5.3 | 1%
[85] CCN(CC)c1nc2c(c(=O)[nH]c(=O)n2C)n1CCOc1ccccc1
    x | x | -6 | -2.6 | x
[86] O=C1CN(C(=O)c2ccc(Br)o2)C(c2ccccc2)c2cc(Cl)ccc2N1 (stereo not drawn)
    -19 | -19 | 5 | 13 | 4%
[87] Nc1nc(C2CC(=O)OC23CCCCC3)cs1 (stereo not drawn)
    -8 | 2 | -5 | -4.9 | -1%
[88] C[C@]12CCC[C@H](O1)c1c(cc3c(c1O)C(=O)c1c(O)cc(O)cc1C3=O)O2
    x | x | 20 | 8.2 | 26%
